MenB inh – blocks the Mycobacterium tuberculosis MenB enzyme; P9WNP5; MenB enzyme assay, absorbance read-out; some hits fall short of the stated cut; inhibition, %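 (about 12 µg/mL by stock and volumes)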; 100,000 compounds, 0.43% hits;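 active = mean of two replicates above 30%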;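 also: 0% = no compound and 100% = wells with inactive enzyme; the first replicate is given; strong numbers were not always called active; inactives centre near -10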
Mtb MbtI inh – MbtI salicylate synthase inhibition; purified MbtI enzyme, fluorescence intensity read-out; inhibition, %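 (about 17 µg/mL by stock and volumes)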; 100,000 compounds, 0.89% hits; AID 493033;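 active = above 50% in both replicates, above 80% if mildly self-fluorescent; inactive = the rest, strongly fluorescent compounds included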;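 also: 0% = mean of negative and 100% = mean of positive controls; one replicate is shown; some compounds called inactive have numbers as strong as hits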
Target sequence (P9WFX0 whole entry, looked up): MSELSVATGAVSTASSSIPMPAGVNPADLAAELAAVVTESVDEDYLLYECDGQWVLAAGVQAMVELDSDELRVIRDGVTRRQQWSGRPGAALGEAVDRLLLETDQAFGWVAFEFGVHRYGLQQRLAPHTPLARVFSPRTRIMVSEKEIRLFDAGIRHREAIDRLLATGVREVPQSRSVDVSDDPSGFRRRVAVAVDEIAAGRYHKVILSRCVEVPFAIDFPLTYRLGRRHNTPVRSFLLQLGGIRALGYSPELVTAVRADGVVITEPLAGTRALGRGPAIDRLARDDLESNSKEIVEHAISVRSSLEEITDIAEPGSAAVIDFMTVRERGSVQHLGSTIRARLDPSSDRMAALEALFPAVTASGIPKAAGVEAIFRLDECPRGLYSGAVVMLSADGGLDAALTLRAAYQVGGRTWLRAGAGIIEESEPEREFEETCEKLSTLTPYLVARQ
PV pol inh – inhibitors of poliovirus RNA polymerase binding and polymerization; 150,000 compounds, 0.66% hits; % elongation, % (compound at 16.7 µg/mL); poliovirus polymerase elongation, fluorescence polarization; stronger effect = lower value; in the data active = % elongation below about 90%; also: some results filed as inactive read as strong as hits
Target sequence (P03300 1749-2209 limits assumed): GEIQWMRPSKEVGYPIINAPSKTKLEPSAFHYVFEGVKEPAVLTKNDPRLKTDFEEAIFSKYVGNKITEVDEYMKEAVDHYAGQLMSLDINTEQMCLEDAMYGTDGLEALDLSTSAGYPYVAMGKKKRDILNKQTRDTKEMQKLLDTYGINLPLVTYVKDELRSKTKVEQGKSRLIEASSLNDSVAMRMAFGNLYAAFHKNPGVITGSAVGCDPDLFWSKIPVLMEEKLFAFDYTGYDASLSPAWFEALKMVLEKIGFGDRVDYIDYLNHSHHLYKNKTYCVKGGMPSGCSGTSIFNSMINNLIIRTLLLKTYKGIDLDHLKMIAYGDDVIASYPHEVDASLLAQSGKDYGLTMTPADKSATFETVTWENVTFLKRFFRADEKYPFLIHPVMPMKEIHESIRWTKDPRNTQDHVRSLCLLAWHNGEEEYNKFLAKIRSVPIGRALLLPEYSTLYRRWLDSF
PV pol inh intensity – recorded beside PV pol inh, whose call it bears; % elongation; measured here: total intensity read-out; formula for this scale not given here;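 total fluorescence in place of polarization; lower means less elongation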
* = called active by the depositor; / = not tested or not shown; & = joins results of further samples.

SMILES | MenB inh | Mtb MbtI inh | PV pol inh | PV pol inh intensity
C#CCN(C)[C@H](C)c1ccccc1 | -13.0 | / | 104.0 | 103.0
COc1ccccc1NC(=O)c1ccc(-n2cccn2)cc1 | -62.2 | -16.1 | 104.0 | 105.0
CNCc1ccc2c(c1)n(C)c(=O)n2C | -0.8 | -5.8 | 105.0 | 102.0
CC(C)CCn1c(=O)c2ccccc2n2c(COC(=O)c3cc(F)cc(F)c3)nnc12 | -7.0 | -0.2 | 102.0 | 107.0
C=CCN(CC=C)C(=O)/C=C/c1ccccc1 | 3.0 | 8.9 | 99.0 | 101.0
CC(c1ccccc1)N1Cc2c(oc3ccccc3c2=O)N(C(=O)OCc2ccccc2)C1 (stereo unspecified) | 18.8 | 117.6 | 103.0 | 101.0
COc1ccccc1-n1cnnc1SCC#N | 5.5 | -1.2 | 108.0 | 110.0
CCCN1C(=O)/C(=N\OCC(=O)NCCC2=CCCCC2)c2ccccc21 | -12.9 | 2.9 | 105.0 | 104.0
O=C(NCc1ccco1)c1ccc(Cl)c(NS(=O)(=O)c2ccc(F)cc2)c1 | -12.2 | -8.3 | 101.0 | 92.0
Cc1nc2ncnn2c(C)c1CCC(=O)N(C)c1ccccc1 | -5.9 | 25.9 | 101.0 | 100.0
O=C(CN1Cc2ccccc2C1=O)Nc1ccc(Br)cc1F | 6.0 | 0.8 | 102.0 | 98.0
Cc1[nH]n(-c2ccccc2)c(=O)c1/C=N/Nc1nnc(C)c(=O)[nH]1 | -68.9 | -3.4 | 102.0 | 101.0

Copied from the list:
MenB inh result of COc1ccccc1NC(=O)c1ccc(-n2cccn2)cc1 : -62.2
PV pol inh intensity result of C=CCN(CC=C)C(=O)/C=C/c1ccccc1 : 101.0

Further entries follow:
SMILES | MenB inh | Mtb MbtI inh | PV pol inh | PV pol inh intensity
O=C(NCC1COc2ccccc2O1)c1cc2ccccc2o1 (stereo unspecified) | -5.5 | 5.5 | 102.0 | 103.0
CC(C)(C)/C=C(\C#N)C(C)(C)C | 10.4 | 8.1 | 102.0 | 96.0
COc1ccc(/C=C/C(=O)C2(O)CCCCC2)cc1OC | -29.5 | / | 108.0 | 106.0
Cc1cn2cc(-c3cccc(Cl)c3)nc2s1 | 3.3 | -4.8 | 99.0 | 102.0
CN1CCN(CCCNC(=O)Cn2ncc3c4ccccc4n(C)c3c2=O)CC1 | -23.2 | 87.2 | 103.0 | 101.0
CCCCCn1c(CO)nc2ccccc21 | 15.6 | -15.4 | 100.0 | 108.0
COC(=O)c1ccccc1S(=O)(=O)N1CCC(C(=O)OCC(=O)NC2CCCCC2C)CC1 (stereo unspecified) | -1.7 | 1.6 | 101.0 | 103.0
CCN1CCCC1CNC(=O)c1cc2c(=O)n(C)c3ccccc3c2n1C (stereo unspecified) | -12.5 | 105.4 | 95.0 | 101.0
CN(CC1COc2ccccc2O1)c1nc(-c2cccnc2)nc2ccccc12 (stereo unspecified) | -15.6 | -10.8 | 105.0 | 110.0
CCN(CC(=O)Nc1ccccc1C(F)(F)F)CC(=O)NC1CC1 | -4.8 | 3.8 | 102.0 | 101.0
COc1nc(Nc2ccccc2)nc(OCC(F)(F)F)n1 | -15.1 | / | 102.0 | 98.0
c1cc2c(cc1C1CCCCC1)c1c3n2CCCNC3CCC1 (stereo unspecified) | -21.8 | -4.7 | 99.0 | 104.0
Cc1ccc(-n2cnc3c2C(=O)c2ccccc2C3=O)cc1 | / | -5.2 | 102.0 | 97.0
COC(=O)c1ccc(Nc2ccccc2)cc1 | / | -6.5 | 103.0 | 106.0
CC1Cc2ccccc2N1C(=O)CCn1c(=O)oc2ccccc21 (stereo unspecified) | -10.1 | 0.6 | 102.0 | 96.0
O=C(Nc1ccccc1I)C1CCCO1 (stereo unspecified) | -1.5 | -4.5 | / | /
CC1(C)NC(=O)N(CCC(=O)O)C1=O | -52.5 | 5.1 | 101.0 | 100.0
C=CCn1c(SCC(=O)N2CCCC2)nc2cc(C(=O)NCC3CCCO3)ccc2c1=O (stereo unspecified) | -3.4 | -11.8 | 102.0 | 106.0
Cc1cc(C)c(S(=O)(=O)Nc2ncn[nH]2)cc1C | -29.8 | -4.2 | 105.0 | 100.0
CC(C)NCC(O)COc1ccc(CC(N)=O)cc1 (stereo unspecified) | -2.6&5.8 | -13.2&-15.2 | 104.0&102.0 | 102.0&101.0
Cc1ccnc2nc(C(=O)Nc3ccc(N4CCOCC4)cc3)nn12 | -22.7 | -11.7 | 101.0 | 104.0
O=C(COCc1cc(-c2ccc3c(c2)OCO3)on1)N1CCN(c2ccc(F)cc2)CC1 | -13.2 | 18.6 | 102.0 | 101.0
Cc1ccc2c(c1)C(c1ccccc1)CC(C)N2C(=O)c1ccccc1F (stereo unspecified) | -41.1 | 0.9 | 102.0 | 106.0
CN1CCN(Cc2cn[nH]c2-c2ccccc2)CC1 | 7.4 | / | 98.0 | 99.0
O=C(CN1CCN(S(=O)(=O)c2ccccc2)CC1)NC(=O)NC1CCCCC1 | -32.9 | -9.6 | 103.0 | 93.0
CC(C)c1cc(=O)oc2cc(O)ccc12 | 7.3 | 112.1 | 103.0 | 105.0
O=c1[nH]c(-c2ccsc2)nc2sc3c(c12)CCC3 | / | -11.8 | 103.0 | 112.0
CCNc1nc(NCC)n2c(SCC3CN(Cc4ccccc4)CCO3)nnc2n1 (stereo unspecified) | -14.0 | -13.6 | 104.0 | 110.0
CCN1CCN(CCN=C2NS(=O)(=O)C(c3ccc(F)cc3)=C2C)CC1 | 15.9 | 5.8 | 102.0 | 102.0
COc1ccc(-c2cc(C(=O)N(C)Cc3ccccc3)no2)cc1 | -26.1 | 1.0 | 98.0 | 106.0
CC1(C)CC(=O)C2=C(C1)N(c1ccccc1)C(=O)CC2c1cccnc1 (stereo unspecified) | -9.1 | / | 108.0 | 102.0
CC(C)c1ccc(NC(=O)C2CCC(CNS(=O)(=O)c3cccc4nsnc34)CC2)cc1 (stereo unspecified) | -11.2 | -1.6 | 101.0 | 102.0
CCOc1ccc(C2=C(CN(C)C)C(c3ccc(F)cc3)c3ccccc3O2)cc1 (stereo unspecified) | -28.8 | 12.6 | 102.0 | 101.0
Cc1ccc(CNC(=O)Cn2ccc(C(F)(F)F)n2)cc1 | -24.2 | -6.1 | 104.0 | 110.0
CN(C(=O)c1noc2c1CSc1ccccc1-2)c1cccc(C(F)(F)F)c1 | 0.5 | -14.2 | 105.0 | 107.0
CC1=NNC(=O)/C1=C\c1cn(-c2ccccc2)nc1-c1ccc(F)cc1 | -22.5 | / | 100.0 | 104.0

13 of the compounds above, with two lines to a compound.
Every second line gives: MenB inh | Mtb MbtI inh | PV pol inh | PV pol inh intensity
CN1CCN(Cc2cn[nH]c2-c2ccccc2)CC1
  7.4 | / | 98.0 | 99.0
O=C(CN1CCN(S(=O)(=O)c2ccccc2)CC1)NC(=O)NC1CCCCC1
  -32.9 | -9.6 | 103.0 | 93.0
CC(C)c1cc(=O)oc2cc(O)ccc12
  7.3 | 112.1 | 103.0 | 105.0
O=c1[nH]c(-c2ccsc2)nc2sc3c(c12)CCC3
  / | -11.8 | 103.0 | 112.0
CCNc1nc(NCC)n2c(SCC3CN(Cc4ccccc4)CCO3)nnc2n1 (stereo unspecified)
  -14.0 | -13.6 | 104.0 | 110.0
CCN1CCN(CCN=C2NS(=O)(=O)C(c3ccc(F)cc3)=C2C)CC1
  15.9 | 5.8 | 102.0 | 102.0
COc1ccc(-c2cc(C(=O)N(C)Cc3ccccc3)no2)cc1
  -26.1 | 1.0 | 98.0 | 106.0
CC1(C)CC(=O)C2=C(C1)N(c1ccccc1)C(=O)CC2c1cccnc1 (stereo unspecified)
  -9.1 | / | 108.0 | 102.0
CC(C)c1ccc(NC(=O)C2CCC(CNS(=O)(=O)c3cccc4nsnc34)CC2)cc1 (stereo unspecified)
  -11.2 | -1.6 | 101.0 | 102.0
CCOc1ccc(C2=C(CN(C)C)C(c3ccc(F)cc3)c3ccccc3O2)cc1 (stereo unspecified)
  -28.8 | 12.6 | 102.0 | 101.0
Cc1ccc(CNC(=O)Cn2ccc(C(F)(F)F)n2)cc1
  -24.2 | -6.1 | 104.0 | 110.0
CN(C(=O)c1noc2c1CSc1ccccc1-2)c1cccc(C(F)(F)F)c1
  0.5 | -14.2 | 105.0 | 107.0
CC1=NNC(=O)/C1=C\c1cn(-c2ccccc2)nc1-c1ccc(F)cc1
  -22.5 | / | 100.0 | 104.0

Next results follow.
SMILES | MenB inh | Mtb MbtI inh | PV pol inh | PV pol inh intensity
CCCOn1nnnc1-c1ccccc1 | 3.2 | -12.8 | 99.0 | 102.0
NC(=O)C1CCN(CCC(=O)Nc2ccccc2)CC1 | 2.0 | / | 107.0 | 112.0
COc1ccc(C2/C(=C(/O)c3ccccc3)C(=O)C(=O)N2CC(OC)OC)c(OC)c1 (stereo unspecified) | -39.7 | 1.6 | 103.0 | 102.0
Cc1nccn1S(=O)(=O)c1ccc(Cl)cc1Cl | -19.9 | -0.4 | 102.0 | 103.0
CCOc1ncccc1C(=O)OC(C)C(=O)Nc1ccccc1 (stereo unspecified) | -14.2 | 1.6 | 105.0 | 106.0
N#CC(C(=O)Nc1cccc(C(F)(F)F)c1)C(=S)Nc1ccccc1Cl (stereo unspecified) | -16.9 | 37.9 | 102.0 | 107.0
CC(C)(CN)N1CCOCC1 | -21.5 | -10.1 | 102.0 | 108.0
Cc1ccc(CNC(=O)c2ccc(CS(=O)Cc3ccc(C)cc3)o2)cc1 (stereo unspecified) | -8.7 | -20.4 | 101.0 | 102.0
CCC(CC)NC(=O)c1ccc2ncsc2c1 | -8.2 | 1.2 | 100.0 | 104.0
CCN(C(=O)CSc1nnc(C)o1)c1cccc2ccccc12 | -11.2 | -7.0 | 105.0 | 106.0
CC(=O)Nc1sc(C)c(C)c1C#N | -15.4 | / | 94.0 | 97.0
CSC1=C(C#N)C(c2ccccc2)CC(=O)N1 (stereo unspecified) | / | -1.5 | 103.0 | 108.0
CC(=O)NC1C(Oc2ccccc2C)OC2COC(C)(C)OC2C1O (stereo unspecified) | -24.7 | -3.1 | 101.0 | 104.0
O=C1CCO1 | 4.6 | -15.4 | 100.0 | 101.0
CCCCC(=O)NC1(C(F)(F)F)C(=O)N(Cc2ccco2)C(C)=C1C(=O)OC (stereo unspecified) | 20.5 | 6.5 | 103.0 | 103.0
COc1ccc(Cc2nc3ccccc3n2C)cc1 | -12.7 | -2.1 | 100.0 | 99.0
O=C(C1=C(O)c2ccccc2S(=O)(=O)N1)c1ccc(Cl)s1 | -29.7 | 1.8 | 96.0 | 94.0
CC(/C=N/n1c(-c2cccnc2)n[nH]c1=S)=C\c1ccccc1 | -6.8 | 11.7 | 99.0 | 101.0
CC1(C)C(=O)N(c2cccc(Cl)c2)C(=O)C1(C)C | 0.6 | -15.8 | 98.0 | 101.0
CCCCCCC1/C(=N/O)CCC1C(=O)OC (stereo unspecified) | 13.2 | 17.4 | 102.0 | 102.0
S=c1c2c(nc3nc[nH]n13)CCC2 | -9.1 | 24.9 | 101.0 | 103.0
CC(=O)Nc1ccc(C(=O)OCC(=O)N(C)C2CCCCC2)cc1 | / | -1.7 | 104.0 | 106.0
COc1ccccc1C(=O)Nc1nc2ccccc2s1 | -46.3 | 115.2 | 101.0 | 102.0
CCOC(=O)c1c[nH]c(=S)[nH]c1=O | 9.0 | 7.2 | 102.0 | 94.0
S=C(NCc1ccccc1)N1CCc2ccccc21 | -7.3 | 14.4 | 101.0 | 105.0
Cc1cnc(NC(=O)COc2ccc3ccccc3c2)s1 | -20.6 | 3.3 | 100.0 | 99.0
COC(=O)C1c2ccccc2Oc2ccccc21 | 2.2 | -9.1 | 98.0 | 100.0
O=C1c2ccccc2C(=O)N1c1ccc(S(=O)(=O)N2CCOCC2)cc1 | -12.1 | -6.8 | 104.0 | 100.0
CCC(Cc1ccccc1)NS(=O)(=O)c1ccc2c(c1)CC(C)N2C(=O)C1CC1 (stereo unspecified) | 7.2 | 15.9 | 105.0 | 99.0
N#CCCn1cc(C(=O)Nc2nccs2)c(-c2cccs2)n1 | -15.7 | -11.2 | 101.0 | 102.0
O=C1CSC2=NC3=C(CCc4ccccc43)C(c3ccccc3)N12 (stereo unspecified) | 10.8 | 1.2 | 103.0 | 104.0
Cc1c(C(=O)NCc2cccs2)oc2ccc3c(c12)C(=O)CC1(CCCC1)O3 | -11.3 | 6.0 | 100.0 | 101.0
CCn1c(=O)c(=O)[nH]c2cc(C(=O)NCc3cccs3)ccc21 | -40.2 | 100.2 | 105.0 | 93.0
O=C(Cc1ccc(F)cc1)Nc1cc(=O)[nH]c(=O)[nH]1 | 5.5 | 1.1 | 98.0 | 105.0
CCOC(=O)c1[nH]c(C)c(CNc2ccccc2)c1C | -16.4 | / | 104.0 | 106.0
Cc1cccc(C(=O)NC(Cc2ccccc2)C(N)=O)c1 (stereo unspecified) | -15.2 | -2.9 | 101.0 | 102.0
CC(C)OCC(O)CN (stereo unspecified) | 32.2* | -1.4 | 102.0 | 101.0
Cn1ncc2c(Nc3ccccc3)ncnc21 | -13.9 | / | 96.0 | 106.0
Cc1ccc(C)c(N2CCN(CCCNC(=O)CN3C(=O)CSc4ncccc43)CC2)c1 | -4.0 | -6.8 | 101.0 | 104.0
O=S(=O)(Cc1ccc(Cl)cc1)NCCN1CCOCC1 | -14.8 | -7.2 | 100.0 | 102.0
